GAA inhib: inhibitors of human lysosomal alpha-glucosidase; 0.005% of 200,000 active; Potency, µM (doses to about 76.9 µM), for inactives: at the top dose activity change, negative = inhibition, most hits filed as inhibitors; purified human GAA, 4-MU-alpha-glucoside fluorescence;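 also: plate controls were uninhibited enzyme wells for no effect and no-enzyme background for full effect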
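Enzyme (4 nM final) mixed with compound (up to 77 uM), then 4-MU-alpha-D-pyranoside (400 uM final) added; 20 min at room temperature, pH 5.0. Reaction stopped at pH 10, fluorescence read, AC50 derived by Hill fit.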
GAA glycogen: GAA glycogen-cleavage inhibition or activation; AID 2100; P10253; 0.38% of 300,000 active; recombinant GAA, glycogen substrate, Amplex Red glucose oxidase fluorescence; Potency, µM (titrated, usually from 76.4 µM), without a hit: at the top dose activity change, negative = inhibition, usual class: inhibitors;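 also: 0% = full enzyme reaction and -100% = no-enzyme basal signal; the screen sought inhibitors and activators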
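Recombinant human alpha-glucosidase (4 nM final) hydrolysed bovine liver glycogen (30 ug) for 40 min at 37 C in pH 5.0 citrate/phosphate with 0.01% Tween-20. Released glucose detected by glucose oxidase/Amplex Red, Ex 573/Em 610 nm. Compounds up to 77 uM; AC50 from Hill fits.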
GLA spleen mod: inhibits or activates alpha-galactosidase in human spleen homogenate | P06280 | human spleen homogenate, 4MU-alpha-Gal fluorescence, 40 min | Potency, µM (top dose mostly 80 µM), for inactives: at the top dose activity change, negative = inhibition, most hits filed as inhibitors | 0.008% of 240,000 active | AID 2107;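 also: 0% = enzyme with vehicle and -100% = no enzyme basal signal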
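Spleen homogenate 1 ug + cpd (titration) + 4-MU-alpha-D-galactopyranoside 1 mM; 37C 40 min; 50 mM citrate/phosphate pH 5.0, 0.01% Tween-20; stop pH 10; fluorescence 365/440; AC50 via Hill.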
SMN2 splice up: enhancers of SMN2 splice variant expression; HEK293 SMN2-luciferase splicing reporter, luminescence, 30-36 h; Potency, µM (highest dose often 46.1 µM), without a hit: at the highest dose activity change, positive = activation, hits mostly activators; 2.8% of 210,000 active; also: % of control where 0% means no effect; nearly all actives have a fitted effect of over 55% in size
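HEK293 cells carry an SMN2 minigene-luciferase reporter in which exon 7 inclusion puts luciferase in frame. Cells were seeded at 2000 cells/well, attached for 10-12 hours, then exposed to compounds for 30-36 hours at 37C before ONE-Glo luminescence.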
RGS12 GoLoco inh: RGS12 GoLoco-Gai1 interaction inhibition. P63096. Gai1:RGS12 GoLoco peptide FP, rhodamine, 10 min. Potency, µM (highest dose often 61.6 µM), for inactives: at the highest dose activity, negative = inhibition, actives largely listed as inhibitors. 0.44% of 230,000 active; active = well fitted inhibition curve with a large enough effect, not every such curve was filed as active; inactive = no such curve, though single readings can be large or run the other way; also: % is scaled to controls: 0 for no effect and ±100 for the full control effect; nearly all actives have a fitted effect of over 30% in size; many of its hits are not listed in these tables
aGlu spleen mod: lysosomal alpha-glucosidase (human) modulation. human spleen homogenate, 4-MU-alpha-glucoside fluorescence. 0.006% of 240,000 active. AID 2112. P10253. Potency, µM (titrated, usually from 79.9 µM), without a hit: at the top dose activity change, negative = inhibition, hits mostly inhibitors;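 also: 0% = enzyme with vehicle and -100% = no enzyme basal signal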
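Human spleen homogenate (1 ug) with 4-methylumbelliferyl-alpha-D-glucopyranoside (1 mM final) in 50 mM citrate/phosphate pH 5.0, 0.01% Tween-20; 40 min at 37 C. Stopped at pH 10; 4-MU fluorescence Ex 365/Em 440 nm; AC50 by Hill fit.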
ALDH1A1 inh: ALDH1A1 (human) enzyme inhibition; P00352; Purified ALDH1A1, NADH fluorescence, propionaldehyde substrate; Potency, µM (top dose mostly 75.3 µM), without a hit: at the highest dose activity, negative = inhibition, hits mostly inhibitors; 7.3% of 220,000 active; AID 1030; active = well fitted inhibition curve with a large enough effect, not every such curve was filed as active; inconclusive = small, poorly fitted or top-dose-only effect, or another doubt; inactive = no such curve, though single readings can be large or run the other way;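 also: plate controls were no enzyme wells and a reference inhibitor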
Target sequence (P00352 whole entry, looked up): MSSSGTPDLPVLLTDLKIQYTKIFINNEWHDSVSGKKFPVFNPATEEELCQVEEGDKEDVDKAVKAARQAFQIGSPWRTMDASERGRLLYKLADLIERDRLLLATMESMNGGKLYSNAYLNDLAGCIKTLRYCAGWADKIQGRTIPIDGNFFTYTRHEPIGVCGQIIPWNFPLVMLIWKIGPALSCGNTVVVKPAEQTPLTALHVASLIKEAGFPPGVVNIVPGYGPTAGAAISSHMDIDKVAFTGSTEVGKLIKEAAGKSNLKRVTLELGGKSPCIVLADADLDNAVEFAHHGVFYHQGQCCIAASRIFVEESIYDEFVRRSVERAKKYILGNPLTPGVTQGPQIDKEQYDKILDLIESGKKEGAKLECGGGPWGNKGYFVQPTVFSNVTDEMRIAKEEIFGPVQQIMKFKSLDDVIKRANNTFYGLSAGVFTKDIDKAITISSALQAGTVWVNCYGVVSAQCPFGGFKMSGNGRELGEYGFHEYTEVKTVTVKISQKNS
Active calls of the source: *; ? = inconclusive; nt = no result given. Unless noted, calls follow the shape of the dose curve; as a rule, active = well fitted curve in the direction sought with a large enough effect; inconclusive = small, poorly fitted or top-dose-only effect, or another doubt; inactive = no such curve, though single readings can be large; an effect the other way counts as inactive or inconclusive. Potency is read from the fitted curve at half-maximal effect.

SMILES | GAA inhib | GAA glycogen | GLA spleen mod | SMN2 splice up | RGS12 GoLoco inh | aGlu spleen mod | ALDH1A1 inh
CSc1ccc(C(=O)C2CCCN(C(=O)c3cccc(N4CCOCC4)c3)C2)cc1 (configuration not stated) | -5% | 4% | -5% | nt | 7% | -4% | -3%
Cc1nc(N2CCN(C(=O)c3ccco3)CC2)c2c3c(sc2n1)CC(C)CC3 (configuration not stated) | 13% | -6% | -5% | nt | 1% | 0% | 13µM*
C=CCNC(=S)N1CCN(Cc2ccccc2)CC1 | -12% | -8% | 2% | nt | 6% | -8% | 14µM*
Cn1c(NNC(=O)c2c(F)cccc2F)cc(=O)n(C)c1=O | nt | ? | 11% | nt | 12% | 2% | nt
CCN(CC)C(=O)CSc1nc2cc(OC)c(OC)cc2c(=O)n1Cc1ccc(Cl)cc1 | 2% | 3% | -5% | nt | nt | 1% | 3%
CCN(CC)CCCOc1ccc(Cl)c(Cl)c1 | 0% | -5% | 3% | -1% | -2% | -4% | 0%
Cc1cc(N2CCN(C)CC2)nc2ccc(NC(=S)N3CCN(c4ccc(F)cc4)CC3)cc12 | 5% | -7% | 0% | -22% | 8% | 3% | 30%
Cc1onc(-c2c(Cl)cccc2Cl)c1C(=O)N1CCN(c2ncccn2)CC1 | -4% | 3% | -7% | nt | -4% | 2% | -9%
CCc1[nH]c(=O)[nH]c1C(C)S(=O)(=O)c1ccc(C)cc1 (configuration not stated) | -1% | ? | -1% | 19% | -16% | 0% | 32µM*

2 consecutive entries already listed, for reference:
SMILES | GAA inhib | GAA glycogen | GLA spleen mod | SMN2 splice up | RGS12 GoLoco inh | aGlu spleen mod | ALDH1A1 inh
Cc1onc(-c2c(Cl)cccc2Cl)c1C(=O)N1CCN(c2ncccn2)CC1 | -4% | 3% | -7% | nt | -4% | 2% | -9%
CCc1[nH]c(=O)[nH]c1C(C)S(=O)(=O)c1ccc(C)cc1 (configuration not stated) | -1% | ? | -1% | 19% | -16% | 0% | 32µM*

Arranged by number of heavy atoms (lowest first): some entries from above.
SMILES | GAA inhib | GAA glycogen | GLA spleen mod | SMN2 splice up | RGS12 GoLoco inh | aGlu spleen mod | ALDH1A1 inh
CCN(CC)CCCOc1ccc(Cl)c(Cl)c1 | 0% | -5% | 3% | -1% | -2% | -4% | 0%
C=CCNC(=S)N1CCN(Cc2ccccc2)CC1 | -12% | -8% | 2% | nt | 6% | -8% | 14µM*
CCc1[nH]c(=O)[nH]c1C(C)S(=O)(=O)c1ccc(C)cc1 (configuration not stated) | -1% | ? | -1% | 19% | -16% | 0% | 32µM*
Cn1c(NNC(=O)c2c(F)cccc2F)cc(=O)n(C)c1=O | nt | ? | 11% | nt | 12% | 2% | nt
Cc1nc(N2CCN(C(=O)c3ccco3)CC2)c2c3c(sc2n1)CC(C)CC3 (configuration not stated) | 13% | -6% | -5% | nt | 1% | 0% | 13µM*
CSc1ccc(C(=O)C2CCCN(C(=O)c3cccc(N4CCOCC4)c3)C2)cc1 (configuration not stated) | -5% | 4% | -5% | nt | 7% | -4% | -3%
CCN(CC)C(=O)CSc1nc2cc(OC)c(OC)cc2c(=O)n1Cc1ccc(Cl)cc1 | 2% | 3% | -5% | nt | nt | 1% | 3%
Cc1cc(N2CCN(C)CC2)nc2ccc(NC(=S)N3CCN(c4ccc(F)cc4)CC3)cc12 | 5% | -7% | 0% | -22% | 8% | 3% | 30%

A portion of the library. The share of hits here may be higher or lower than overall.
